Anaer choline gr: blocks anaerobic gram-negative growth on choline. Gram-negative bacterium anaerobic choline minimal medium, absorbance growth; hits give low values; many inactives read as strong as hits in the columns shown. AID 1963822. hit rate 0.2% among 55,000. calls only;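 active = growth z-score on choline under -2 at 7 or 20 h with little or no fall on glycerol, limits in tiers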;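 note: stock transfer was 300 nL into about 50 µL; the organism is E. coli; final concentration not given here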
Anaer choline gr early: also measured in Anaer choline gr; calls as there; z-score; measured here: choline growth z-score, timepoint 1;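 score of optical density at 7 h as mean of two plates; lower means less growth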
Active calls of the source: *; i = inactive; & = joins results of further samples.

Values in the order: Anaer choline gr	Anaer choline gr early
Cc1cccc(NC(=O)CSc2cn(CC(=O)N3CCC(C)CC3)c3ccccc23)c1
    i	0.1
Cc1ccnc(N2CCCC(C(=O)O)C2)n1 (stereo unspecified)
    i	0.33
CCN1/C(=C/C(C)=O)Sc2ccc(OC)cc21
    i	-0.28
Cc1ccc(N2CC(C(=O)Nc3ccc4c(c3)N(C)C(=O)c3ccccc3O4)CC2=O)cc1C (stereo unspecified)
    i	1.4
O=S(=O)(c1ccc(F)cc1F)N1CCC(c2noc(-c3ccccc3)n2)CC1
    i	-0.57
O=C(Nc1ccc(OCc2cc(=O)n3ccccc3n2)cc1)Nc1cccc(Cl)c1
    i	-0.21
CCCNC(=O)Nc1cccc(-c2noc(/C=C/c3ccc(C)cc3)n2)c1
    i	0.79
COc1ccc(-c2cc3ncc(C(=O)c4cc(C)ccc4O)cn3n2)cc1
    i	1.3
O=C(c1ccc(N2C(=O)CCS2(=O)=O)cc1Cl)N1CCCC1
    i	0.08
COc1cccc(Cc2nc3ccccc3nc2SCC(=O)N2CCNC2=O)c1
    i	2.2
CCC(=O)Nc1cccc(-c2noc(C3CCCN(C(=O)Cc4ccc(F)cc4)C3)n2)c1 (stereo unspecified)
    i	0.91
Cc1cc2c(cc3n2CC(C)(C(=O)NC2CCCCC2)N(C2CCCCC2)C3=O)o1 (stereo unspecified)
    i	0.6
O=C(NCc1ccc(F)cc1)c1ccc(-c2ccc(F)cc2)nc1
    i	0.59
NC1CCN(O)C1=O (stereo unspecified)
    i	0.26
O=C(CSc1nnc2c3sc(N4CCCC4)nc3ncn12)Nc1ccc(F)c(F)c1
    i	0.46
CC1CCN(C(=O)CN2C(=O)CCc3cc(S(=O)(=O)N4CCC(C)CC4)ccc32)CC1
    i	0.27
CCCCC(=O)Nc1ccc2c(c1)nc(CN1CCN(C(C)=O)CC1)n2CC
    i	0.63
COC(=O)c1ccc(NC(=O)Cn2nc3c(Sc4ccccc4)nc4ccccc4n3c2=O)cc1
    i	0.15
CCOC(=O)c1nc(Nc2ccc(F)cc2)c2c(C)c(C)n(-c3ccccc3)c2n1
    i	0.77
Cc1cccc(NC(=O)N2CCN(C)c3ncccc32)c1C
    i	0.91
CCc1ccc(NC(=O)N2CC=C(c3c[nH]c4ccccc34)CC2)cc1
    i	-2.9
COc1ccc(C2CC(=O)N(c3ccc(C(C)C)cc3)C(=O)C2)cc1OC
    i	0.72
O=C(CC1NCCNC1=O)OC1CCCCC1 (stereo unspecified)
    i	-1.4
Cc1ccc(S(=O)(=O)N2CSC[C@@H]2C(=O)NCc2csc(C)n2)cc1
    i	-1.6
Cc1nn(-c2ccccc2)c2sc(C(=O)O)cc12
    i	-1.5
COC(=O)c1c(-c2ccc(Cl)cc2)noc1N1CCN(c2ccccc2F)CC1
    i	0.45
COc1ccc(NC(=O)NCCc2nc3cccnc3n2-c2ccccc2)c(OC)c1
    i	0.21
CCOC(=O)c1c(C)[nH]c(C)c1S(=O)(=O)N1CCCC(C(=O)Nc2ccc(C)cn2)C1 (stereo unspecified)
    i	-1.4
O=S(=O)(NCc1nc2cccnc2n1Cc1ccccc1)c1ccc(Cl)cc1
    i	0.63
COC(=O)CSc1nc2sc3c(c2c(=O)n1CCc1ccccc1)CC(C)(C)OC3
    i	-0.06
Cc1csc(-n2[nH]c(C)c(CCC(=O)Nc3cc(Cl)ccc3C)c2=O)n1
    i	-1.2
O=C(CCc1nc(-c2ccc(N3CCCC3)cc2)no1)N1CCN(c2ncccn2)CC1
    i	0.48
CCNC(=O)c1ccc2c(c1)c(C)c(C)n2C
    i	-0.86
CCNC(=O)C1CCc2sc(C(=O)N3CCC(C)CC3)cc2C1 (stereo unspecified)
    i	-0.37
CCCCN(c1nc2nc(C)c(Cl)c(C)n2n1)S(=O)(=O)c1ccc(C)cc1
    i	-0.92
O=C(c1ccc(F)cc1)N1CC(OCc2cccc(F)c2)C1
    i	-0.92
CCC(C)NC(=O)N1CCC(N2CCN(Cc3ccc(F)cc3)C(=O)C2=O)CC1 (stereo unspecified)
    i	-0.89
CC(=O)Nc1ccc(N2C(=O)c3cc(C)nn3CC2(C)C(=O)NCc2ccccc2)cc1 (stereo unspecified)
    i	-1.4
Cn1c(=O)c2nc(Sc3nnc(NC(=O)c4ccccc4)s3)n(C)c2n(C)c1=O
    i	0.34
CC(C)CCNC(=O)CCCCn1c(=O)c2ccccc2n(CC(=O)Nc2ccc3c(c2)OCO3)c1=O
    i	1.1
Cc1ccc(Cc2nc(-c3ccc4c(c3)[nH]c(=O)c(=O)n4C(C)C)no2)cc1
    i	0.34
Cc1ccc(S(=O)(=O)N2CCC3(CC2)NCCN=C3NCc2ccc(Cl)cc2)cc1
    i	0.5
CCN(CC)CCNC(=O)CCn1cnc2oc(C)c(C)c2c1=O
    i	-0.84
CC1(C)Cc2cccc(OCC(=O)N3CCN(c4ncnc5c4nnn5-c4ccccc4)CC3)c2O1
    i	1.1
COc1ccc(-c2noc(CNC(=O)C3CCC(=O)N3S(=O)(=O)c3ccc(C)cc3)n2)cc1 (stereo unspecified)
    i	-0.06
CC(/C=C/C(=O)NO)=C\[C@@H](C)C(=O)c1ccc(N(C)C)cc1
    i	0.54
Cc1cccc(-c2cc(N3CCN(S(C)(=O)=O)CC3)ncn2)c1
    i	-2.4
CCCCNC(=O)Cc1c(C)nc2nc(CCC)nn2c1C
    i	-0.03
Cn1nccc1C(=O)N1CCCC1c1ccc(F)cc1 (stereo unspecified)
    i	-0.71
O=C(O)c1ccc(N2CCN(c3ncccn3)CC2)c(NC(=O)c2ccc(Cl)cc2)c1
    i	-0.5

More entries
Values in the order: Anaer choline gr	Anaer choline gr early
Brc1cccc([C@@H]2C[C@H](c3ccccc3)n3nnnc3N2)c1
    i	0.01
CCCNCC1C(Oc2ccc(Cl)cc2)C(=O)N1c1ccccc1C (stereo unspecified)
    i	-2.1
COc1ccc(-c2noc(-c3ccccc3OCC(=O)NC3CCCC3)n2)cc1
    i	0.69
COCCNC(=O)C1(C)Cn2nc(-c3ccccc3)cc2C(=O)N1c1ccc(F)cc1C (stereo unspecified)
    i	0.25
COc1ccc(NC(=O)N2CCN(c3cc(-c4cc(F)ccc4OC)ncn3)CC2)cc1OC
    i	-0.42
O=S(=O)(NCCn1c(-c2ccccc2)nc2cccnc21)c1ccc(Br)cc1
    i	-1
COc1ccc(NC(=O)C2CCN(S(=O)(=O)c3ccc(-c4noc(C5CC5)n4)cc3)CC2)cc1
    i	2.2
O=C(NCc1cccnc1)c1nc(CCS(=O)(=O)c2ccccc2)no1
    i	-0.62
O=C(Nc1cccc(C(=O)N2CCCC(C(=O)NCC3CCCO3)C2)c1)c1ccccc1 (stereo unspecified)
    i	-1.1
O=C(NCCN1CCCCC1)C1CCN(c2cncnc2N2CCOCC2)CC1
    i	-0.12

Four compounds drawn at random from the list so far:
Values in the order: Anaer choline gr	Anaer choline gr early
O=C(NCc1cccnc1)c1nc(CCS(=O)(=O)c2ccccc2)no1
    i	-0.62
COc1ccc(NC(=O)C2CCN(S(=O)(=O)c3ccc(-c4noc(C5CC5)n4)cc3)CC2)cc1
    i	2.2
O=C(Nc1cccc(C(=O)N2CCCC(C(=O)NCC3CCCO3)C2)c1)c1ccccc1 (stereo unspecified)
    i	-1.1
COc1ccc(NC(=O)N2CCN(c3cc(-c4cc(F)ccc4OC)ncn3)CC2)cc1OC
    i	-0.42

Other entries
Values in the order: Anaer choline gr	Anaer choline gr early
COc1ccc(OC)c2c1cc1n2CC(C)(C(=O)NC2CCCC2)N(CC2CCCO2)C1=O (stereo unspecified)
    i	-0.49
Cc1ccccc1NC(=O)c1cn(-c2ccccc2)nc1-c1ccccc1
    i	0.99
CC(O)(C(=O)Nc1ccc(S(=O)(=O)c2ccccc2)cc1)C(F)(F)F (stereo unspecified)
    i	0.17&0.66
Cc1ccccc1-c1nn2c(=O)cc(N3CCN(S(=O)(=O)c4ccccc4C)CC3)nc2s1
    i	0.05
COc1cc(C[C@H]2C(=O)OC[C@@H]2Cc2ccc(OC)c(OC)c2)ccc1O
    i	0.52
CNC(=O)Cc1ccc(-n2c(=O)c3ccccc3n(CC(=O)Nc3ccccc3Cl)c2=O)cc1
    i	1.2
CC(C)C1C2CCC(C2)C1N (stereo unspecified)
    i	0.82
O=C(O)C1CSC(c2ccccc2F)N1 (stereo unspecified)
    i	0.93
O=C(NC1CC1)c1cncc(NS(=O)(=O)c2ccccc2)c1
    i	-0.02
CCOc1ccc(-c2noc(-c3oc4ccc(S(=O)(=O)Nc5ccc(OC)cc5)cc4c3C)n2)cc1
    i	-0.35
COCCNC(=O)Cn1nc(N2CCN(c3ccccc3OC)CC2)ccc1=O
    i	-0.36
Cc1ccc(N2C(=O)c3nccnc3C2=O)cc1
    i	-1
CCCn1c(=O)c2ccccc2n2c(SCC(=O)NC3CCCCC3)nnc12
    i	-0.91
CCCN1C=NS(=O)(=O)c2cc(C(=O)NC(C)C)ccc21
    i	-0.53
CCc1cccc(-n2nnnc2N2CCN(C(=O)Nc3ccc(Br)c(C)c3)CC2)c1
    i	-4.1
C=CCOC(=O)c1sc(NC(=O)c2snnc2C)nc1C
    i	-1.9
Cc1cc(N2CCC(C)CC2)n2ncnc2n1
    i	-0.03
O=C(CN1N=NC2C(=O)N(c3ccc(F)c(F)c3)C(=O)C21)Nc1ccccc1Cl (stereo unspecified)
    i	-0.7
Cc1ccc(Cn2nc3c(S(=O)(=O)N4CCCC4)cccn3c2=O)c(C)c1
    i	-0.04
Cn1cnc(S(=O)(=O)Nc2ccccc2F)c1
    i	-1.6
COc1cc(OC)cc(-c2noc(CSc3nc4ccsc4c(=O)[nH]3)n2)c1
    i	0.36
CN1CCCN(C(=O)c2nc(C3CCCC3)nc3c2OCCO3)CC1
    i	0.79
CCOc1c(OC)cccc1C1CC(=O)Nc2c1c(C)nn2-c1ccc2nncn2n1 (stereo unspecified)
    i	1.3
COc1cc(=O)n(-c2ccc(F)cc2)nc1C(=O)Nc1cc(Cl)ccc1O
    i	0.73
CCc1ccc(-c2ccc(=O)[nH]n2)cc1S(=O)(=O)N(Cc1ccccc1)Cc1ccccc1
    i	1.8
CCCn1c(=O)c(-c2ccc(C(=O)NCCCN3CCCC3)cc2)nc2ccccc21
    i	0.02
CCOC(=O)c1c(S(=O)(=O)N2CCC(C(=O)Nc3cccc4c3CCCC4)CC2)c(C)n(C)c1C
    i	0.34
COC(=O)c1ccc2c(=O)n(-c3cccc(F)c3)c(N3CCSC3)nc2c1
    i	-0.19
O=c1ccc2ccc(O)c(O)c2o1
    i	-0.24
CCc1ccc2c(c1)-c1ccccc1S(=O)(=O)N2CC(=O)N(CC)CC
    i	-1

Compound profiles, from the list above.
`CCCN1C=NS(=O)(=O)c2cc(C(=O)NC(C)C)ccc21` in the list: Anaer choline gr = i; Anaer choline gr early = -0.53
`Cc1ccc(N2CC(C(=O)Nc3ccc4c(c3)N(C)C(=O)c3ccccc3O4)CC2=O)cc1C` (stereo unspecified) in the list: Anaer choline gr = i; Anaer choline gr early = 1.4
`CCCn1c(=O)c(-c2ccc(C(=O)NCCCN3CCCC3)cc2)nc2ccccc21` in the list: Anaer choline gr = i; Anaer choline gr early = 0.02

Next part.
Values in the order: Anaer choline gr	Anaer choline gr early
O=C1CN(C(=O)CN2c3ccc(F)cc3-c3ccccc3S2(=O)=O)c2ccccc2N1
    i	-0.36
O=C(NCC1CCCO1)Nc1cccn2c(C3CCC3)nnc12 (stereo unspecified)
    i	-1.2
CCCOc1c(C(=O)OC)sc2ccc(NC(=O)CCc3nc(-c4ccc(C)cc4)no3)cc12
    i	0.46
Cc1ccc(NC(=O)Cn2c(=O)n(Cc3nc(C)no3)c(=O)c3ccccc32)c(Cl)c1
    i	-0.81
Cn1cc2nc(SCc3cccc(Br)c3)n(Cc3ccccc3)c(=O)c2n1
    i	1.2
COc1ccc(-c2cc3c(=O)n(CC(=O)NCc4ccc5c(c4)OCO5)ccn3n2)cc1OC
    i	0.95
CCC(=O)Nc1ccccc1-c1nc2ccccc2n(C(C)C(=O)Nc2ccccc2CC)c1=O (stereo unspecified)
    i	0.51
COCCSc1nc2c(cnn2CCO)c(=O)[nH]1
    i	-0.59
C#CCN1C(C)=C(C(=O)OC)C(c2cccc([N+](=O)[O-])c2)C(C(=O)OCC)=C1C (stereo unspecified)
    i	0.46
CNC(=O)CCc1nc2ccccc2n(CC(=O)NCc2ccc(F)cc2)c1=O
    i	-0.1
O=C(NCCn1c(-c2ccccc2)nc2cccnc21)c1ccc(Br)cc1
    i	-0.28
Cc1noc2ncnc(NCc3ccc(Cl)cc3)c12
    i	0.16
c1ccc(Nc2c(-c3ccc(N4CCOCC4)cc3)nc3ccccn23)cc1
    i	0.92
CCS(=O)(=O)N1CCC(n2cnc3cc(F)ccc3c2=O)CC1
    i	-0.47
CCC(=O)Nc1ccc(-c2cc(C(=O)NC(C)CC)c3ccccc3n2)cc1 (stereo unspecified)
    i	1.2
CC(C)N1CCN(S(=O)(=O)c2cc(-c3nnc(C4CCCC4)o3)co2)CC1
    i	-0.06
O=C(Cn1c(=O)nc(-c2ccccc2)c2cc(Cl)ccc21)NC1CCCC1
    i	-0.78
COCCNC(=O)c1ccc2c(c1)nc1n2CCC(C)C1 (stereo unspecified)
    i	-1.2
CCOC(=O)c1c(NC(=O)c2ccc(N3C(=O)CCC3=O)cc2)sc2c1CCN(C(C)C)C2
    i	-0.68
Cc1csc(-c2cc(S(=O)(=O)Nc3ccc(F)c(Cl)c3)c(C)s2)n1
    i	0.84
COC(=O)c1ccc(NC(=O)COc2cccc3ccc(N4CCC(C(N)=O)CC4)nc23)cc1
    i	-0.12
Cc1ccc2[nH]c(=O)c(-c3noc(CCC(=O)N4CCCC4)n3)cc2c1
    i	0.13
CC1c2cccn2-c2sc3c(c2CN1C(=O)NC1CCCC1)CCCC3 (stereo unspecified)
    i	1.2

Source: PubChem

Some of the compounds tested (hit frequency here may not be typical).
